Assay outcomes (PubChem)
KCNQ2 block: KCNQ2 potassium channel inhibitors, primary screen, cell-based, CHO-K1, FluxOR thallium flux, B-score (AID 2156); 20 min; active compounds read low; only compounds with negative scores are shown here; some inactives read as strong as hits; O88943; 1.1% of 310,000 active; B-score at 10 µM;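 active = fluorescence ratio B-score at most minus 3 library SDs, with starting brightness B-score within 2 library SDs, cut at about -5.5 in these data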
Target sequence (O88943 whole entry, looked up): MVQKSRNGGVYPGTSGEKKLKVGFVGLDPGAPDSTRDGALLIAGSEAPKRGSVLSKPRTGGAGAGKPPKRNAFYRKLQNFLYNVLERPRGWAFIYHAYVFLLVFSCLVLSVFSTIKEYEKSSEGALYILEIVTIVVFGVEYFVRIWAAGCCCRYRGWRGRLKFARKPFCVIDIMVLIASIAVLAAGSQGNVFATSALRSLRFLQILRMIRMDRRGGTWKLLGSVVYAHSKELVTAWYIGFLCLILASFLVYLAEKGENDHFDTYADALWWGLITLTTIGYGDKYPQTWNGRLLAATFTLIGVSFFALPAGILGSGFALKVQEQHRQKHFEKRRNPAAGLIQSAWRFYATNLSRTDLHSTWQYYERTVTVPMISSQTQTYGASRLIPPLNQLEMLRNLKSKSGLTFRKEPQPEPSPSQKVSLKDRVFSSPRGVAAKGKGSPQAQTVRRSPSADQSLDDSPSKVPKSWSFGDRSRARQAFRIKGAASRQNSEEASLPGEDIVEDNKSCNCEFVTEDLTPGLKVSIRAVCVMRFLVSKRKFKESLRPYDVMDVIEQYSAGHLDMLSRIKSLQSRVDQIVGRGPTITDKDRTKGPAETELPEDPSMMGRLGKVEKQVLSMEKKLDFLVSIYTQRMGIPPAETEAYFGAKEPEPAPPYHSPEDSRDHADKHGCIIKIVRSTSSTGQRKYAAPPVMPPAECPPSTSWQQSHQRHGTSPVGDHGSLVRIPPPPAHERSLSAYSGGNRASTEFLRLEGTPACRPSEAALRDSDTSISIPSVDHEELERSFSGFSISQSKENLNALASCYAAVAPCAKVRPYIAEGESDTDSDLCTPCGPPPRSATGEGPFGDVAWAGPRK
KCNQ2 block baseline: also measured in KCNQ2 block; calls as there; B-score; measured here: initial fluorescence intensity artifact check;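 brightness before thallium and not channel activity; 0 = typical well and far values either way flag optical interference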
Numbers without * were called inactive; i = inactive. This is a subset; the hit share may differ from the screen's.

Results follow in this order: KCNQ2 block, KCNQ2 block baseline
O=[N+]1C2=C(CCCC2)N([O-])C12CCCC2
→ i, 0.15
O=C(N/N=C/c1ccccn1)c1[nH]c2ccc([N+](=O)[O-])cc2c1-c1ccccc1
→ i, 1.06
Cn1c(SCC(N)=O)nnc1C1CCN(S(=O)(=O)c2ccccc2C(F)(F)F)CC1
→ i, 0.58
Nn1c(SCc2ccccc2)nc2ccccc21
→ i, -2.1
O=C(NCCCn1ccnc1)c1ccc(N2CCCCC2)c([N+](=O)[O-])c1
→ i, 3.27
O=C(CCC(=O)N1CCOc2ccccc21)Nc1ccc(F)cc1F
→ i, 0.03
Nc1nc(-c2cc(O)ccc2[N+](=O)[O-])cc(-c2ccccc2)c1[N+](=O)[O-]
→ i, 0.43
Cc1ccc2c(Cl)cc(Cl)c(OCC(=O)N(C(C)C)C(C)C)c2n1
→ i, 0.76
Cc1ccc(C(=O)N2CC(C)CC(C)C2)cc1NC1=NC2CS(=O)(=O)CC2S1 (stereo not given)
→ i, 2.16
Cc1ccc(C(=O)NCCCc2ccccc2)c(Cl)c1
→ i, 0.32
Cc1ccccc1C(=O)NNC(=O)C1CCCN(c2ncccn2)C1 (stereo not given)
→ i, 3.44
CC(C)CCNC(=O)C(c1ccco1)N(Cc1ccccc1)C(=O)c1snc(C(N)=O)c1N (stereo not given)
→ i, 0.16
CN(CC(=O)Nc1cccc(F)c1)C(=O)CCc1nc2cc(S(=O)(=O)N3CCOCC3)ccc2n1C
→ i, -0.36
CCOC(=O)N1CCC(NC(=O)CCc2nc(-c3ccccc3F)no2)CC1
→ i, -0.02
O=C(c1cc(-c2cccc(Br)c2)nc2ccccc12)N1CCCC1
→ i, -0.77
O=C(O)/C(=C\c1ccc(F)cc1)c1ccc(-c2ccccc2)cc1
→ i, 0.83
CC(=O)c1cccc(N=c2scc(-c3ccc(S(=O)(=O)N4CCOCC4)cc3)n2CCO)c1
→ i, -2.16
COC(=O)c1cc(-c2cccc([N+](=O)[O-])c2)c2c(=O)n(C)c(=O)n(C)c2n1
→ i, -0.05
NC(=O)c1nsc(C(=O)N(c2ccccc2)C(C(=O)NCc2ccc(F)cc2)c2ccc(O)cc2)c1N (stereo not given)
→ i, -0.22
O=C(NCCC(=O)N1CCCCCCC1)c1ccc(Cl)cc1
→ i, 0.03

More compounds follow:
Results follow in this order: KCNQ2 block, KCNQ2 block baseline
COC(=O)c1ccc(CS(=O)(=O)c2ccc(C)cc2)cc1
→ i, -2.78
Cc1onc(-c2c(Cl)cccc2Cl)c1COC(=O)c1ccc(Cl)cc1[N+](=O)[O-]
→ i, 1.51
Cn1c(=O)c2c(nc(N3CCNCC3)n2Cc2ccccc2Cl)n(C)c1=O
→ i, 0.95
Nc1ncnc(SCc2c(F)cccc2Cl)n1
→ i, -0.41
CCCS(=O)(=O)c1nc(S(=O)(=O)c2ccc(C)cc2)c(N2CCCC(C)C2)s1 (stereo not given)
→ i, 0.96
Cc1ccc(NC(=O)CCNS(=O)(=O)c2ccc3[nH]c(=O)oc3c2)cc1F
→ i, 0.69
CSc1cccc(NC(=O)C(C)NS(=O)(=O)c2ccc(F)cc2)c1 (stereo not given)
→ i, -0.15
COc1cc(/C=N/N2C(=O)c3ccccc3C2=O)ccc1O
→ i, 1.66
O=S(=O)(/C=C/c1ccccc1)Nc1ccc2c(c1)OCO2
→ i, 1.2
CCCn1c(SCC(=O)NC(=O)Nc2ccc(C)cc2C)n[nH]c1=O
→ i, 0.55
O=C(NCc1ccccc1)c1ccc(Oc2ccc(C(=O)NCc3ccccc3)cc2)cc1
→ i, 0.05
Cn1cc(CN2CCC(n3nccc3NC(=O)CCCc3ccccc3)CC2)cn1
→ i, -1.45
CCC(C)c1ccccc1N1CC(C(=O)N2CCN(S(=O)(=O)c3ccc(F)cc3)CC2)CC1=O (stereo not given)
→ i, -0.03
CCOc1ccc(CN(C)CCc2ccccn2)cc1
→ i, 0.44
O=C(Nc1cccc(S(=O)(=O)NC2=NCCC2)c1)C1CCC1
→ i, 2.41
CC1=C/C(=C/N(C)c2ccccc2)C(=O)S1
→ i, 0.35
CCOC(=O)C1CCCN(C(=O)c2cn(CC(C)C)c(=O)c3cc(OC)c(OC)cc23)C1 (stereo not given)
→ i, -0.1
Cc1cccc(OCC(=O)Nc2ccc(C(=O)O)cc2NC(=O)COc2cccc(C)c2)c1
→ i, 0.32
CCN1c2ccccc2-c2nc3ccccc3n2C1c1ccncc1 (stereo not given)
→ i, -0.14
O=C(c1cn(-c2ccccc2)nc1-c1ccncc1)n1nnc2ccccc21
→ i, -0.47

Of the compounds above, these contain an aryl methoxy group.
Results follow in this order: KCNQ2 block, KCNQ2 block baseline
COc1cc(/C=N/N2C(=O)c3ccccc3C2=O)ccc1O
→ i, 1.66
CCOC(=O)C1CCCN(C(=O)c2cn(CC(C)C)c(=O)c3cc(OC)c(OC)cc23)C1 (stereo not given)
→ i, -0.1

Of the compounds above, 2 contain a COOH group:
Results follow in this order: KCNQ2 block, KCNQ2 block baseline
O=C(O)/C(=C\c1ccc(F)cc1)c1ccc(-c2ccccc2)cc1
→ i, 0.83
Cc1cccc(OCC(=O)Nc2ccc(C(=O)O)cc2NC(=O)COc2cccc(C)c2)c1
→ i, 0.32

(next part)
Results follow in this order: KCNQ2 block, KCNQ2 block baseline
c1ccc2c(c1)oc1c(NCCCn3ccnc3)ncnc12
→ i, 2.29
COc1ccc(CCNC(=O)CCN2C(=O)[C@@H]3Cc4ccccc4CN3C2=O)cc1
→ i, -0.64
Cc1cccc(NC(=O)CNC(=O)CN2C(=O)NC3(CCCCC3C)C2=O)c1C (stereo not given)
→ i, -0.72
c1ccc(-c2nnc3n2CCCC3)cc1
→ i, -0.26
CCCCNC(=S)N(C)/N=C/c1c(F)cccc1F
→ i, -2.51
CC(C)(C)NC(=O)CN(C(=O)CS(=O)CC(=O)Nc1ccc(F)cc1)c1cccc(F)c1 (stereo not given)
→ i, 1.69
Cc1cccc(NC(=S)/N=C(\N)Nc2nc(C)c3ccc(C)cc3n2)c1
→ i, 1.72
NCC(O)CN(c1ccccc1)c1ccccc1 (stereo not given)
→ i, -0.26
CC(C)[C@H]1CC[C@@H](C)C(C(=O)c2ccccc2)C1=O (stereo not given in full)
→ i, 0.81
CC(C)(C)CN1CCN(Cc2nc(-c3ccc(F)cc3)cs2)CC1CCO (stereo not given)
→ i, -0.13
O=C(O)c1ccc2c(=O)n(-c3ccc(F)cc3)c(=S)[nH]c2c1
→ i, 0.01
Cc1cc(C)nc(NC(=O)c2ccccc2O)n1
→ i, 1.52
COc1ccccc1CN1CCNC(=O)C1CC(=O)N(C)Cc1nc(C)cs1 (stereo not given)
→ i, 0.44
O=C(N/C(=C\c1cccnc1)C(=O)N1CCCCC1)c1cccc(Br)c1
→ i, -0.87
CCC(Cc1ccccc1)NC(=O)C1CCN(S(=O)(=O)c2c(C)noc2C)CC1 (stereo not given)
→ i, -0.08
Fc1ccc(CNc2nc3ccccc3n3nnnc23)cc1
→ i, 0.75
O=S(=O)(c1cc(Cl)cc(Cl)c1O)N1CCC2(CC1)OCCO2
→ i, -1.07
Cc1cccc(N2CCN(S(=O)(=O)c3ccc4c(c3)C(C)(C)C(=O)N4C)CC2)c1C
→ i, -1.67
Cc1cc(C)n(C(C)CNC(=O)c2ccc3c(c2)OCO3)n1 (stereo not given)
→ i, -0.27
CC1Cc2ccccc2N1C(=O)CSc1nc2c(c(=O)n(C)c(=O)n2C)n1Cc1ccccc1 (stereo not given)
→ i, -1.81

Next section
Results follow in this order: KCNQ2 block, KCNQ2 block baseline
c1ccc2c(Cn3nnc4ccccc43)cccc2c1
→ i, 0.64
O=C(Nc1cc(C(F)(F)F)cc(C(F)(F)F)c1)Nc1cnn(-c2ccc([N+](=O)[O-])cc2)c1C(F)(F)F
→ i, -1.19
O=C(c1cc(S(=O)(=O)N2CCOCC2)c(Cl)cc1Cl)N1CCCCC1
→ i, -0.17
COc1cc(N=Nc2cccc(S(N)(=O)=O)c2)c2ccccc2c1N
→ i, -1.9
CC1Cc2cc(S(=O)(=O)N3CCN(c4ccccc4F)CC3)ccc2N1C(=O)C1CC1 (stereo not given)
→ i, 0.3
COc1ccccc1NS(=O)(=O)c1ccc(NC(=O)N2CCCCC2)cc1
→ i, -0.78
CC1CC1c1ccc(/C=C(\C#N)C(=O)Nc2ccccc2Cl)o1 (stereo not given)
→ i, 0.08
CCOC(=O)C1(c2nc(N)cs2)COC(=O)C1 (stereo not given)
→ i, 0.58
O=C(NCCF)[C@H]1C[C@@H]1[C@H](NP(=O)(c1ccccc1)c1ccccc1)c1ccccc1
→ i, 0.23
N#C/C(=C(/O)CCl)c1nc2ccccc2[nH]1
→ i, -0.77
O=C(Cc1ccc2c(c1)OCCO2)N1CCN(S(=O)(=O)c2cccs2)CC1
→ i, -0.67
NC(=O)CSc1nnc(NC(=O)c2ccc(S(=O)(=O)N3CCCCC3)cc2)s1
→ i, 0.03
CC1CCCC(C)N1CC(O)Cn1c2ccccc2c2ccccc21 (stereo not given)
→ i, 0.14
O=C(NNC(=O)c1csc(-c2cnccc2C(F)(F)F)n1)c1ccc(C(F)(F)F)cc1
→ i, -0.29
CC1(C)CC(NC(=O)C23CCC(C)(C2Br)C3(C)C)CC(C)(C)N1 (stereo not given)
→ i, -0.06
CCC(=O)N1CCN(c2ccc(NC(=S)NC(=O)c3cccc([N+](=O)[O-])c3)cc2)CC1
→ i, 0.19
Cc1ccc(NC(=S)NCCc2ccc(S(N)(=O)=O)cc2)cc1C
→ i, 0.32
CCOc1ccc(-n2c(C)cc(/C=N/N(C)C)c2C)cc1
→ i, 0.02
O=C(CCNS(=O)(=O)c1ccc(Cl)cc1)NCc1cccnc1
→ i, 1.82
CCOc1ccc(CC2S/C(=N/N=C/c3ccco3)NC2=O)cc1 (stereo not given)
→ i, -0.02

The list continues.
Results follow in this order: KCNQ2 block, KCNQ2 block baseline
CCN(CC)S(=O)(=O)c1ccc(S(=O)(=O)N2CCN(C(=O)c3ccco3)CC2)cc1
→ i, -0.91
O=C(CN1C(=O)CCC1=O)Nc1ccc(Cc2ccc(NC(=O)CN3C(=O)CCC3=O)cc2)cc1
→ i, -0.41
O=C(O)c1cnc(-c2ccccc2)nc1C(F)(F)F
→ i, -0.51
Oc1ccc(-c2nccc(-c3ccc(Br)cc3)n2)cc1
→ i, 0.55
CC(C)Oc1ccc(/C=C/C(=O)NCC2COc3ccccc3O2)cc1 (stereo not given)
→ i, -1.04
O=C(COC(=O)c1ccccc1Br)Nc1ccccc1F
→ i, 1.54
CCCc1cc(=O)oc2cc(OCC(=O)NCCCN3CCOCC3)ccc12
→ i, -0.33
NC(=S)N/N=C/c1ccc(C(F)(F)F)cc1
→ i, 0.75
COc1ccc(NCc2cc(=O)[nH]c3ccccc23)cc1
→ i, 1.02
CC(C)c1ccc(NC(=O)CCS(=O)(=O)c2cccc3nonc23)cc1
→ i, 0.08
O=c1[nH]c2ccc(N=Cc3c(O)ccc4cc(Br)ccc34)cc2[nH]1
→ i, 0.22
O=C(Nc1cccc(-c2ccccc2)c1)N1CCN(C(=O)Nc2cccc(-c3ccccc3)c2)CC1
→ i, 0.28
COc1ccc(C(=O)NCCc2cnc[nH]2)cc1OC
→ i, 0.84
O=S(=O)(c1ccc(Oc2ccc(Br)cc2)cc1)N1CCOCC1
→ i, -0.22
Cc1ccc(NCc2ccccc2O)cc1
→ i, -0.52
Cc1ccc(/C=C/C(=O)Nc2cc(S(N)(=O)=O)ccc2O)cc1
→ i, -0.02
O=C(CNCc1ccc(Cl)cc1)Nc1ccc(C(=O)N2CCCCCC2)cc1
→ i, 0.46
Cc1cc(CNC(=O)Cc2ccc(F)cc2)c2ccccc2n1
→ i, -0.01
O=C(O)c1ccc2c(c1)C(=O)N(c1cccc3ccccc13)C2=O
→ i, 0.33
C=CCn1c(COc2ccccc2)nnc1SCC(=O)N/N=C/c1ccc(C)cc1
→ i, 0.04

Other entries:
Results follow in this order: KCNQ2 block, KCNQ2 block baseline
COc1ccc([N+](=O)[O-])cc1NC(=O)Cn1ccsc1=N
→ i, 0.82
COc1ccc(NC(=O)/C=C/c2ccco2)cn1
→ i, 0.55
O=C(COc1ccc(Cl)cc1Cl)N/N=C/c1ccc[nH]1
→ i, -1.64
COc1ccc(CN(C)C(=O)C(Cc2ccccc2)NC(=O)c2ccccc2)c(OC)c1 (stereo not given)
→ -6.69*, 0.93*
COc1ccc(CCN2CN(S(=O)(=O)c3ccccc3)c3nc4ccccc4nc32)cc1
→ i, 0.65
CS(=O)(=O)N(Cc1ccccc1)c1ccc(C(=O)Nc2ccc(C(N)=O)cc2)cc1
→ i, 0.49
Cc1nn(-c2cc(Cl)ccc2N)c(=O)c2ccccc12
→ i, 0.76
CCOC(=O)CN1C(=O)SC(CC(=O)Nc2nccs2)C1=O (stereo not given)
→ i, -1.17
CCn1c(SCCN2CCCCC2)nnc1-c1ccc(S(=O)(=O)N2CCOCC2)cc1
→ i, -0.09
O=C(CSc1ccsc1[N+](=O)[O-])NCCc1ccccc1
→ i, 2.41
COC(=O)c1cc(Br)c(=O)n(-c2ccc(OC)cc2)c1
→ i, -0.54
COc1cccc(C2C(C(=O)c3ccco3)=C(O)C(=O)N2CCN(C)C)c1OC (stereo not given)
→ i, -0.21
CCN(CC)CCN1C(=O)c2ccccc2NC1c1ccccc1F (stereo not given)
→ i, 2.75
CC(=O)Nc1ccccc1NC(=O)c1cc(C)ccc1C
→ i, -0.37
CC(C)NC(=O)CCS(=O)(=O)c1ccc(Br)s1
→ i, -0.4
Cc1c(C(=O)c2ccccc2)c2ccccn2c1CCC#N
→ i, -0.89
O=C(CN1C(=O)C2CCCCC2C1=O)Nc1cccc([N+](=O)[O-])c1 (stereo not given)
→ i, 0.42
[2H]C(CCOS(N)(=O)=O)c1ccccc1 (stereo not given)
→ i, -0.17

Given with values ahead of the structure: two of the compounds above.
KCNQ2 block	KCNQ2 block baseline	Structure
i	-2.1	Nn1c(SCc2ccccc2)nc2ccccc21
i	3.27	O=C(NCCCn1ccnc1)c1ccc(N2CCCCC2)c([N+](=O)[O-])c1
